Mtb betalactam: beta-lactam sensitization of Mtb H37Rv. M. tuberculosis H37Rv growth with meropenem, percent inhibition; hits of this screen are not shown here. inhibition, % at 25 µM. hit rate 0.27% among 330,000. AID 434955;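 active means about 74% or more and at least 40 points above the plate without the antibiotic, then above 30% in a dose series; inconclusive means first-round hits that could not be retested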;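 further: growth measured after seven days incubation then overnight dye step; 0% = bacteria only wells and 100% = bacteria with antibiotic; twin plates without the antibiotic show which effects depend on it; some results filed as inactive read as strong as hits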
Mtb H37Rv: M. tuberculosis H37Rv growth inhibitors, H37Rv strain (AID 1626) | inhibition, % at 10 µM, or IC50 in µM where a hit was titrated | hit rate 0.95% among 220,000 | M. tuberculosis H37Rv growth inhibition; higher % means a stronger effect;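 active means confirmed in a dose series; inconclusive means inhibition above 80% but not taken into the dose series; inactive means below 80% or under 30% at every dose of the series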;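 further: bacteria incubated seven days before Alamar blue readout; 0% = bacteria only wells and 100% = bacteria with antibiotic wells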
YopH inh: YopH (Yersinia) phosphatase inhibition; hit rate 0.16% among 140,000; fluorescence Ex485/Em525; inhibition, %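 (about 10 µM by stock and volumes)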;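 active means inhibition of 50% or more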;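 further: controls were vehicle for no effect and minimum signal wells for full effect; inactives centre near -20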
RecA splice inh: inhibitors of M. tuberculosis RecA intein splicing; P9WHJ3; hit rate 0.75% among 290,000; cell-free RecA intein splicing, fluorescence; inhibition, %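 (about 9 µM by stock and volumes)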; AID 2221; in the data active means inhibition above about 30%; inconclusive means no clear call, values can overlap the other calls;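 further: 0% = vehicle wells and 100% = reference inhibitor control wells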
Target sequence (P9WHJ3 whole entry, looked up, canonical isoform): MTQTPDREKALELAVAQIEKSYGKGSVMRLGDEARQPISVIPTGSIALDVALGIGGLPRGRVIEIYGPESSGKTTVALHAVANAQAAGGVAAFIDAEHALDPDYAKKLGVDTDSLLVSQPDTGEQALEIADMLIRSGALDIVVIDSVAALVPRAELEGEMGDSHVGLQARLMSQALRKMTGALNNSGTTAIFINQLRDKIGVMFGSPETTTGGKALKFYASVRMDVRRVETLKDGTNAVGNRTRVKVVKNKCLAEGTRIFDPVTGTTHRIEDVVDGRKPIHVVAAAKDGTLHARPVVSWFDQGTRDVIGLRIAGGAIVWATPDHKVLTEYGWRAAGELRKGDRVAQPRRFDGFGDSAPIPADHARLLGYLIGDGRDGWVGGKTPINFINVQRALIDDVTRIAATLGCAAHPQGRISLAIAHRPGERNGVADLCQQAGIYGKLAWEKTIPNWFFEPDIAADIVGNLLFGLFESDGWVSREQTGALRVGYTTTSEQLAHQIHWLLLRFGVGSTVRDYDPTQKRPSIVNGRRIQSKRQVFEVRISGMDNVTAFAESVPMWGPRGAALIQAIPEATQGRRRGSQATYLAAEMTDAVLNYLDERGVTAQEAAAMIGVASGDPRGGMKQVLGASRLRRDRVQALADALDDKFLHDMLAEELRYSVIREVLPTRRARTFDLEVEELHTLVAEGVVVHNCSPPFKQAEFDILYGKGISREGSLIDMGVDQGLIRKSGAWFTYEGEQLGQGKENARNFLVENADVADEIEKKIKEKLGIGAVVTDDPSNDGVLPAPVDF
Arbovirus anti: blocks arbovirus infection; hit rate 0.37% among 200,000; arbovirus infection cell-based antiviral screen; inhibition, % at 10 µM;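 active means inhibition from about 30%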;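 further: bluetongue infection of BSR cells; cell survival read as ATP light after 72 h; 0% = infected wells without compound and 100% = uninfected wells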
Arbovirus anti repeat: further read-out of Arbovirus anti, marked with its call; inhibition, %; measured here: 10K subset replicate screen; many hits read low in the repeat;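 first of two repeat runs on a subset; 0% = infected and 100% = uninfected wells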
* = called active by the depositor; ? = inconclusive; . = not tested or not shown. Only part of the results is shown (hit frequency here may not be typical).

SMILES	Mtb betalactam	Mtb H37Rv	YopH inh	RecA splice inh	Arbovirus anti	others
CCC(C)(C)n1nnnc1C(c1ccncc1)N1CCN(c2cccc(OC)c2)CC1 (configuration not stated)	2	-12%	2	-1.0	3
Cc1ccc2nc(SCC(=O)NCc3cccs3)c(C#N)cc2c1	1	0%	6	-4.5	-1
Cc1c(C(=O)NC2CCCCC2)oc2ccc(F)cc12	2	.	.	3.0	.
Cc1ccc(C(=O)N2N=C(c3cccc(NS(C)(=O)=O)c3)CC2c2cccs2)cc1 (configuration not stated)	2	.	.	7.2	.
O=C(c1ccc(N2CCCCCC2)c([N+](=O)[O-])c1)N1CCc2ccccc21	0	8%	-16	0.5	-1
COc1ccc(C(=O)Nc2n[nH]c(-c3ccncc3)n2)cc1	9	-10%	-29	.	2
CCCCCCC(=O)NN1CCN(C)CC1	5	-3%	-5	-0.5	0
Cc1ccc(NC(=O)C2(c3ccc([N+](=O)[O-])cc3)CCCC2)cc1	1	1%	12	0.1	2
CCCC(=O)Nc1ccccc1NC(=O)c1ccc(OCC)cc1	0	-6%	.	1.0	3
O=C(CSCCSCC(=O)c1ccco1)c1ccco1	.	-3%	-27	-2.1	1
Cc1cc(NNC(=O)c2cccc(C(F)(F)F)c2)nc2c1c(C)nn2C	6	-8%	.	.	.
CCN(CC)S(=O)(=O)c1ccc(-c2nnc(SCC(=O)Nc3ccc(OC)cc3)o2)cc1	0	-15%	5	0.3	4
CC(NC(=O)c1cc(S(=O)(=O)N2CCCC2)cn1C)c1ccccc1 (configuration not stated)	-2	.	.	-1.3	.
COc1ccccc1CNS(=O)(=O)c1cc2c3c(c1)C(C)C(=O)N3CCC2 (configuration not stated)	-1	.	.	0.5	.
O=c1cc(NCCO)c2ccccc2o1	-13	-8%	-11	-2.4	1
CC(=O)NC1=NC(=O)/C(=C/c2cn(C(C)=O)nc2-c2ccccc2)S1	-4	-2%	.	-2.5	-6
CCOc1ccccc1NC(=O)c1c(NC(=O)CCC(=O)O)sc2c1CCCCC2	.	-2%	.	.	5
COc1ccccc1CN1C[C@@H]2C[C@@H](c3ccccc3C)N3CCC[C@@]23C1=O	-4	8%	.	.	-10
Cc1ccc(C)c(NC(=S)NCCN2CCOCC2)c1	-7	-7%	-37	-1.7	.
C=CCn1c(SCC(=O)NCc2ccccc2)nnc1-c1ccccc1O	-11	-5%	-10	-0.2	1

6 entries picked at random from the list so far, as already listed:
SMILES	Mtb betalactam	Mtb H37Rv	YopH inh	RecA splice inh	Arbovirus anti	others
CCOc1ccccc1NC(=O)c1c(NC(=O)CCC(=O)O)sc2c1CCCCC2	.	-2%	.	.	5
COc1ccccc1CNS(=O)(=O)c1cc2c3c(c1)C(C)C(=O)N3CCC2 (configuration not stated)	-1	.	.	0.5	.
CCN(CC)S(=O)(=O)c1ccc(-c2nnc(SCC(=O)Nc3ccc(OC)cc3)o2)cc1	0	-15%	5	0.3	4
CC(NC(=O)c1cc(S(=O)(=O)N2CCCC2)cn1C)c1ccccc1 (configuration not stated)	-2	.	.	-1.3	.
COc1ccccc1CN1C[C@@H]2C[C@@H](c3ccccc3C)N3CCC[C@@]23C1=O	-4	8%	.	.	-10
C=CCn1c(SCC(=O)NCc2ccccc2)nnc1-c1ccccc1O	-11	-5%	-10	-0.2	1

More structures follow:
SMILES	Mtb betalactam	Mtb H37Rv	YopH inh	RecA splice inh	Arbovirus anti	others
Cn1c(=O)[nH]c2ncn(C)c2c1=O	2	-4%	.	-2.0	.
Cc1ccc(Nc2nc(COC(=O)C3CC3)cs2)cc1	49	3%	.	-0.7	1
O=c1c2ccccc2nc(-c2ccccc2)n1CCCN1CCOCC1	4	0%	-22	-1.6	7
COc1cc([N+](=O)[O-])c(C(=O)N2CCOCC2)c([N+](=O)[O-])c1	?	-3%	13	-1.9	-8
CCCCc1ccc(NC(=O)Nc2c(C)n(C)n(-c3ccccc3)c2=O)cc1	-5	.	.	-3.2	.
O=C(c1ccc2ccccc2c1)C1CCCN(C(=O)CCn2cnnn2)C1 (configuration not stated)	-15	3%	.	0.8	0
COC(=O)c1ccc(NC(=O)CS(=O)(=O)Cc2ccccc2)cc1	30	2%	-29	0.1	-6
CCC(=O)N1CCN(c2ccc(NC(=O)c3ccc4c(c3)OCCO4)cc2)CC1	-3	-10%	.	-1.1	8
C=CCn1c(SCC(=O)NCC2CCCO2)nc2scc(-c3ccco3)c2c1=O (configuration not stated)	-8	-3%	-1	-2.2	-3
COc1ccccc1CNC(=O)COC(=O)Cc1c(F)cccc1Cl	-6	-1%	.	2.0	8
CN1c2ccccc2N(C)C1c1ccc2c(c1)OCO2	-13	-5%	-9	-12	5
O=C(CCCC(=O)OCC(F)(F)C(F)F)Nc1ccccc1F	-3	-9%	.	2.3	11
Cc1nc(NC(=O)CSc2nnc(-c3ccc4c(c3)OCO4)o2)c(Cl)cc1Cl	79	>100µM*	-31	-0.9	-2
Oc1ccccc1C(=S)N1CCCCC1	-4	-12%	-17	-5.6	1	Arbovirus anti repeat=1
COC(=O)CSc1nc(Cc2ccccc2)nc2ccccc12	2	-1%	.	14	6
CCOC(=O)c1sc2nc(C)cc(C)c2c1NC(=O)c1ccco1	52	1%	-8	-0.1	0
Cc1cc(S(=O)(=O)NCCN2CCOCC2)ccc1Cl	-8	.	.	-0.5	.
CC(C)CNS(=O)(=O)c1ccc(CCC(=O)NCc2ccc(Cl)cc2)cc1	0	.	.	-1.9	.
CC(C(N)=O)N1C(=O)C2C3C=CC(C3)C2C1=O (configuration not stated)	-13	-3%	-23	-2.7	9
Cc1ccc(N2C(=O)CSC23C(=O)Nc2ccccc23)cc1 (configuration not stated)	-3	0%	-46	1.4	12
CCCNC(=O)C(=O)NCCC1=CCCCC1	4	-5%	-18	2.4	11
c1cc(-c2sc(-c3ccncc3)c(-c3ccncc3)c2-c2ccncc2)ccn1	52	-1%	.	2.4	.
CCCCCOc1ccc(C2C(C(=O)c3ccc(C)o3)=C(O)C(=O)N2c2cc(C)on2)cc1 (configuration not stated)	23	.	.	4.4	.
COc1ccc(NC(=O)c2cccs2)cc1O	-6	-9%	-8	-7.3	7
NC(=O)c1cccc(C(N)=O)n1	-7	-2%	.	-0.5	9
Oc1c(C(c2ccccn2)N2CCOCC2)ccc2cccnc12 (configuration not stated)	2	7%	-37	.	-13
O=C(C1=C(O)C(=O)N(CCOCCO)C1c1ccccn1)c1cccs1 (configuration not stated)	1	-1%	.	1.1	.
C=CCN1CCN(C(c2ccc(OC)c(OC)c2)c2nnnn2C(C)(C)C)CC1 (configuration not stated)	.	3%	-39	-2.8	-2
Cc1cnc(C(=O)Nc2nccs2)cn1	8	-2%	-2	0.4	2
CC(C)(C)C1CCc2c(sc(NC(=O)CSc3ncn[nH]3)c2C#N)C1 (configuration not stated)	-9	-2%	-38	-1.5	-37

Among those listed so far, 7 contain a halogen.
SMILES	Mtb betalactam	Mtb H37Rv	YopH inh	RecA splice inh	Arbovirus anti	others
Cc1c(C(=O)NC2CCCCC2)oc2ccc(F)cc12	2	.	.	3.0	.
Cc1cc(NNC(=O)c2cccc(C(F)(F)F)c2)nc2c1c(C)nn2C	6	-8%	.	.	.
COc1ccccc1CNC(=O)COC(=O)Cc1c(F)cccc1Cl	-6	-1%	.	2.0	8
O=C(CCCC(=O)OCC(F)(F)C(F)F)Nc1ccccc1F	-3	-9%	.	2.3	11
Cc1nc(NC(=O)CSc2nnc(-c3ccc4c(c3)OCO4)o2)c(Cl)cc1Cl	79	>100µM*	-31	-0.9	-2
Cc1cc(S(=O)(=O)NCCN2CCOCC2)ccc1Cl	-8	.	.	-0.5	.
CC(C)CNS(=O)(=O)c1ccc(CCC(=O)NCc2ccc(Cl)cc2)cc1	0	.	.	-1.9	.

Further records
SMILES	Mtb betalactam	Mtb H37Rv	YopH inh	RecA splice inh	Arbovirus anti	others
Cc1cc(C(F)F)n2nc(C(=O)Nc3sc4c(c3C(N)=O)CCC4)nc2n1	?	-18%	-38	-0.5	-10
O=C(COc1ccc(Cl)cc1)Nc1ncc([N+](=O)[O-])s1	.	7%	.	29	30*
NC(=O)c1ccc(OCC(F)(F)F)nc1	-5	-6%	.	-4.7	.
O=C(CCS(=O)(=O)c1ccc(Br)s1)NCc1ccccc1	11	0%	-9	0.9	-2
COc1ccc(OCCCC(=O)N2CCN(S(=O)(=O)c3cccc(F)c3)CC2)cc1	-6	.	.	1.1	.
CC(=O)NC(Cc1ccc(F)c(F)c1)C(=O)NC1CCN(c2c(Cc3ccccc3)c(C)nc3ncnn23)CC1 (configuration not stated)	0	-3%	.	1.4	-5
CCCCC(=O)Nc1cc([N+](=O)[O-])ccc1F	0	8%	.	-2.6	-10
O=C(Nc1cccnc1)c1cc2c(s1)-c1ccccc1OC2	6	.	.	-37	.
CCCCCCOc1ccc(CN2CCN(CC)CC2)cc1	0	-6%	-11	1.9	1
CCOC(=O)N1CCN(Cc2nc3c(c(=O)n(C)c(=O)n3C)n2CCC(C)C)CC1	-7	-2%	-20	-5.4	3	Arbovirus anti repeat=-2
CC(NC(=O)Cc1ccc(Br)cc1)c1ccccc1 (configuration not stated)	-3	.	.	2.0	.
O=C(Nc1ccccc1N1CCN(C(=O)c2ccc(Cl)cc2)CC1)c1cc(Br)ccc1Cl	19	6%	-6	12	-4
COc1cccc(Cn2c(NCC(C)C)nc3c2c(=O)n(C)c(=O)n3C)c1	-9	-6%	-20	1.1	-1
CCCCn1c(SCC(=O)Nc2cc(C)on2)nc2c1c(=O)n(C)c(=O)n2C	5	-12%	-24	-4.6	0
CC1CCCC(C)N1C(=O)CSc1nnc(CSc2ncccn2)n1C (configuration not stated)	-4	-2%	-12	-0.3	4
CCOC(=O)C1CCN(C(=O)C(CC)c2ccccc2)CC1 (configuration not stated)	3	-1%	.	-1.3	3
CCOC(=O)C1C(=O)C=C(/C=C/c2ccc(N(C)C)cc2)CC1c1ccccc1 (configuration not stated)	5	-4%	-19	-4.9	-12
O=[N+]([O-])c1cc(Br)c(OCc2nnc(-c3ccccc3)o2)c(Br)c1	0	-4%	.	0.5	13
CSc1nc(-c2ccc(Cl)cc2)c(C#N)c(=O)n1C	-3	-10%	.	2.7	-6
CCOc1ccc(C(=O)NCc2ccncc2)cc1	45	-10%	-42	0.1	3

Molecules above containing a furan ring, fused or not:
SMILES	Mtb betalactam	Mtb H37Rv	YopH inh	RecA splice inh	Arbovirus anti	others
Cc1c(C(=O)NC2CCCCC2)oc2ccc(F)cc12	2	.	.	3.0	.
O=C(CSCCSCC(=O)c1ccco1)c1ccco1	.	-3%	-27	-2.1	1
C=CCn1c(SCC(=O)NCC2CCCO2)nc2scc(-c3ccco3)c2c1=O (configuration not stated)	-8	-3%	-1	-2.2	-3
CCOC(=O)c1sc2nc(C)cc(C)c2c1NC(=O)c1ccco1	52	1%	-8	-0.1	0
CCCCCOc1ccc(C2C(C(=O)c3ccc(C)o3)=C(O)C(=O)N2c2cc(C)on2)cc1 (configuration not stated)	23	.	.	4.4	.

Going on with the list:
SMILES	Mtb betalactam	Mtb H37Rv	YopH inh	RecA splice inh	Arbovirus anti	others
COCCN=c1scc(-c2cc(OC)c(OC)c(OC)c2)n1/N=C/c1c(C)[nH]c2ccccc12	5	43%	-23	8.5	-16
CC(=O)c1cc(C(=O)NC2CCCc3c2cnn3-c2cc(C)cc(C)c2)[nH]n1 (configuration not stated)	20	.	.	4.7	.
CCOC(=O)c1cc(NC(=O)CCC(=O)O)ccc1N1CCCCC1	-3	4%	.	-6.6	.
CCOc1ccc(Cn2nnc(C(=O)NCCc3ccc(Cl)cc3)c2N)cc1	0	11%	-16	3.3	2
O=C(CCNC(=O)C1CCN(S(=O)(=O)c2ccccc2)CC1)Nc1ccccc1	-4	.	.	0.3	.
N#Cc1c(-c2ccc(Cl)cc2)c2c([nH]c1=S)CCCC2	-2	14%	.	0.1	2
CCCC(=O)c1ccc(N2CCN(C(=O)OCC)CC2)c(F)c1	10	5%	-44	1.2	16
Cc1ccc(-c2nn(-c3ccc(F)cc3)cc2C(=O)NCC(c2cccs2)N2CCOCC2)cc1 (configuration not stated)	7	.	.	-1.4	.
O=C(COC(=O)c1cc2ccccc2oc1=O)Nc1ccc(F)cc1F	-6	3%	.	0.3	.
